# Assay outcomes (PubChem)
# TDP1 inh: qHTS Assay for Inhibitors of Tyrosyl-DNA Phosphodiesterase (TDP1); recombinant TDP1, AlphaScreen DNA substrate cleavage; Potency, µM (highest dose often 130 µM), for inactives: top-dose activity change, negative = inhibition, usual class: inhibitors; hit rate 0.28% among 350,000; note: nearly all actives have a fitted effect of over 40% in size
# Target sequence (Q9NUW8 whole entry, looked up): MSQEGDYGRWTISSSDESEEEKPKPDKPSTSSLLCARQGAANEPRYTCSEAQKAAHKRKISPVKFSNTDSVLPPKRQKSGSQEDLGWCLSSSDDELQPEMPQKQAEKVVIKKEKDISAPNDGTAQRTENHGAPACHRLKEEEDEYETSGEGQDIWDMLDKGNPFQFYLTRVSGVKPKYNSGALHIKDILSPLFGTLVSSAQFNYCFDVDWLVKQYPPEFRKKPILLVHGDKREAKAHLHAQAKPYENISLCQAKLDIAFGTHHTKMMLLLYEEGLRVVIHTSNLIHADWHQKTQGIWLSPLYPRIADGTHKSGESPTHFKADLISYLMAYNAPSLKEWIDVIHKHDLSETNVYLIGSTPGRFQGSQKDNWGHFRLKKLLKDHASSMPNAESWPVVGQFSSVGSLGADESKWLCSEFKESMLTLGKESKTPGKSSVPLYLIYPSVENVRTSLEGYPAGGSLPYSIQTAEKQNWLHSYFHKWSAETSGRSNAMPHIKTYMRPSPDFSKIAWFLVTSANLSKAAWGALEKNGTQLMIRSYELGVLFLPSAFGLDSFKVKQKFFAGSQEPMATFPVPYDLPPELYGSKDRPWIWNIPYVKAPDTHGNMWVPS
#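 Compounds were preincubated with Tdp1 (1 nM final) for 15 min at room temperature before substrate (15 nM final) started a 5 min reaction; beads (10 ug/ml final) were then added for 10 min before AlphaScreen detection.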
# N370S GC: qHTS Assay for Inhibitors and Activators of N370S glucocerebrosidase as a Potential Chaperone Treatment of Gaucher Disease; Potency, µM (titrated, usually from 59.4 µM), for the others: at the highest dose activity change, negative = inhibition, usual class: inhibitors; Lysosomal acid glucosylceramidase (Homo sapiens), P04062; N370S GC spleen homogenate, 4MU-glucoside fluorescence; hit rate 0.092% among 330,000;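 note: 0% = full enzyme activity and -100% = no enzyme basal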
# Numbers without * were called inactive; u = inconclusive; x = no result given; & = joins results of further samples; [ ] = another dose, or the depositor's remark. Calls come from the whole dose curve; as a rule, active = well fitted curve in the direction sought with a large enough effect; inconclusive = small, poorly fitted or top-dose-only effect, or another doubt; inactive = no such curve, though single readings can be large; an effect the other way counts as inactive or inconclusive. Unless noted, % is set by controls: 0 for no effect and ±100 for the full control effect; potency is the fitted concentration of half-maximal effect. Not all compounds are listed; most or all hits stand in other tables.
no. | N370S GC | TDP1 inh | structure
1 | 5.0% | 7.7% | Cc1ccc(CNC(=O)CCS(=O)(=O)c2ccc(C)cc2)cc1
2 | -6.4% | 0.0% | COc1ccc(NC(=S)Nc2ccc(S(N)(=O)=O)cc2)c(C)c1
3 | -8.4% | 0.0% | O=C(CSC1=NCCS1)NC(NC(=O)CSC1=NCCS1)c1ccccc1
4 | 8.9%[2.35 µM] | -8.1% | CC(C)c1nc2oc3c(N4CCN(C)CC4)ncnc3c2c2c1CCC2
5 | 7.8%[89.1 µM] | 0.0%&5.3% | Cc1ccc(S(=O)(=O)NC(=O)c2ccc(Br)o2)c(C)c1
6 | 3.2% | 3.7% | Cc1ccnc(NC(=O)c2cccc(S(=O)(=O)N3CCN(c4ccccc4)CC3)c2)c1
7 | 7.8% | 0.0% | CCOC(=O)C(=O)Nc1ccccc1C(=O)NCc1ccccc1
8 | x | 1.8% | Cc1sc2ncnc(N3CCC(C(=O)Nc4sc5c(c4C(N)=O)CCC(C)C5)CC3)c2c1C (centres undefined)
9 | -12.8% | x | Cc1ccc(C)c(N(CC(=O)N2CCCC2)S(C)(=O)=O)c1
10 | 10.1% | 2.5% | O=C(NCCO)c1cccc2c1-c1ccccc1C2=O
11 | -4.3% | 4.8%[56.1 µM] | O=C(CCS(=O)(=O)c1ccccc1)Nc1nc2cc3c(cc2s1)OCCO3
12 | 5.0% | -5.1% | COc1ccc(-c2cc(C#N)nc(N3CCN(C)CC3)n2)cc1
13 | -1.3% | -5.7% | Cc1cccc(OCC(=O)NCC(=O)N/N=C/c2ccccc2)c1
14 | 3.7% | -2.9% | COc1ccc(NC(=O)C2CCCN(S(=O)(=O)c3cnc[nH]3)C2)cc1 (centres undefined)
15 | -2.6% | 5.5% | COc1cc(/C=C/C(=O)Nc2ccncc2)cc(OC)c1OC
16 | 4.4% | -11.1% | COC(=O)c1c(C)nc2c(c(SC)nn2-c2ccccc2)c1N
17 | -2.5% | -4.7%[56.1 µM] | CN1CCC2(CCN3CCc4c(oc5ccccc45)C3C2)N(C)C1=O (centres undefined)
18 | x | 5.9% | COc1ccc(CC(=O)N2CC(=O)Nc3ccc(Br)cc3C2c2ccc(F)cc2)cc1OC (centres undefined)
19 | -14.7% | 2.6% | CCOC(=O)C1CCCN(C(=O)C2CCN(S(=O)(=O)c3ccc4ccccc4c3)CC2)C1 (centres undefined)
20 | -3.7% | -1.4% | CCN(CC(=O)Nc1ccc(Br)cc1)CC(=O)Nc1cc(C)on1
21 | -29.0% | -3.6% | c1ccc(-c2nc(N3CCOCC3)cc(N3CCOCC3)n2)cc1
22 | 2.8% | 0.6% | CCOC(=O)C1C(c2ccc(O)c(OC)c2)NC(=S)NC1(O)C(F)(F)F (centres undefined)
23 | 12.0% | 5.1% | COC(=O)C(Cc1ccc(OC(=O)c2ccccc2Cl)cc1)N1Cc2ccccc2C1=O (centres undefined)
24 | 1.2% | x | Cc1ccc(OCCNC(=O)c2ccc(NC(=O)CC3SC(N4CCCC4)=NC3=O)cc2)cc1 (centres undefined)

# Looked up by structure from above, 2 records:
no. | N370S GC | TDP1 inh | structure
23 | 12.0% | 5.1% | COC(=O)C(Cc1ccc(OC(=O)c2ccccc2Cl)cc1)N1Cc2ccccc2C1=O (centres undefined)
20 | -3.7% | -1.4% | CCN(CC(=O)Nc1ccc(Br)cc1)CC(=O)Nc1cc(C)on1

# The results go on.
no. | N370S GC | TDP1 inh | structure
25 | 1.6% | 0.0% | O=C(O)c1ccc(/C=N/Nc2ccc(S(=O)(=O)N3CCCC3)cc2[N+](=O)[O-])cc1
26 | x | 2.0% | Cc1nn(CC(=O)N2CCN(c3cccc(C(F)(F)F)c3)CC2)c(=O)c2cc3sccc3n12
27 | x | -2.6% | Cc1ccc(C)c(NC(=O)CSc2nnc3[nH]c(=O)cc(-c4ccccc4)n23)c1
28 | 0.0% | -1.0% | COC(=O)c1cc2n(n1)CCN(Cc1ccc(OC)cc1)C2=O
29 | 3.9% | -1.9%[56.1 µM] | CC1=C(C(=O)NCc2ccccc2)C(c2cc(Br)cc(Br)c2OC(C)C)NC(=O)N1 (centres undefined)
30 | 1.5% | -5.6% | Cc1cc(Cl)c(S(=O)(=O)NC(C)C)cc1OCC(N)=O
31 | 11.0% | 6.0% | CCOc1ccccc1NC(=O)CN1C(=O)C(C)SC(C)C1=O (centres undefined)
32 | 0.9% | 4.0% | C=CCNC(=S)NNC(=O)C(CCCC)CC(C)O (centres undefined)
33 | -3.2% | 5.6% | O=C(c1ccc(-c2ccccc2)cc1)C1CCCN(Cc2ccncc2)C1 (centres undefined)
34 | -19.4% | 4.0% | CCOC(=O)c1sc2ncnc(N3CCN(c4ccc(OC)cc4)CC3)c2c1C
35 | u | 8.2% | COc1ccc(-c2nnc3sc(CCN4C(=O)c5ccccc5C4=O)nn23)cc1
36 | -13.5% | -1.1% | COc1cccc(N(CC(=O)N2CCc3ccccc3C2)S(C)(=O)=O)c1
37 | 6.0% | 4.2% | O=C1c2cc3ccccc3c(-c3ccccc3)c2C(=O)N1c1ccccn1
38 | 29.6% | -16.0% | C=CCN1C(=O)c2ccccc2NC1c1cc(Br)cs1 (centres undefined)
39 | x | 1.8% | Cc1cc(C(=O)Nc2cccc3c2O[C@@H](CN(C)S(=O)(=O)c2ccccc2)[C@H](C)CN([C@@H](C)CO)C3=O)n(C)n1
40 | -0.5% | 1.0% | CC1CCN(CCCNC(=O)C2CC(=O)N(C3CCCCCC3)C2)CC1 (centres undefined)
41 | 2.4% | 2.6% | CCOc1ccc(N2C(=O)CC(n3ccc(C)n3)C2=O)cc1 (centres undefined)
42 | 4.0% | x | Cc1cccc(C)c1NC(=O)CN
43 | -0.1% | x | O=C1CN(CC(=O)NC2CCCc3ccccc32)CCN1 (centres undefined)
44 | -7.5% | -8.4% | CC(C)N1CCN(Cc2ccsc2)CC1CCO (centres undefined)
45 | x | 1.6% | CC12CCC(=O)N1C(C(=O)NNC(=O)c1ccccc1F)CS2 (centres undefined)
46 | 0.9% | 4.0% | C=CC[N+](C)(C)C/C(Cl)=C(\Cl)c1ccccc1
47 | 4.7% | 1.6% | COc1cc(OC)cc(C(=O)NNC(=O)CCC(=O)c2cccs2)c1
48 | -16.3% | 4.7% | O=C(COC(=O)/C=C/c1cccc(C(F)(F)F)c1)NCc1ccc(F)cc1

# Reformatted: entries from further up
No.	SMILES	N370S GC	TDP1 inh
31	CCOc1ccccc1NC(=O)CN1C(=O)C(C)SC(C)C1=O (centres undefined)	11.0%	6.0%
32	C=CCNC(=S)NNC(=O)C(CCCC)CC(C)O (centres undefined)	0.9%	4.0%
33	O=C(c1ccc(-c2ccccc2)cc1)C1CCCN(Cc2ccncc2)C1 (centres undefined)	-3.2%	5.6%
34	CCOC(=O)c1sc2ncnc(N3CCN(c4ccc(OC)cc4)CC3)c2c1C	-19.4%	4.0%
35	COc1ccc(-c2nnc3sc(CCN4C(=O)c5ccccc5C4=O)nn23)cc1	u	8.2%
36	COc1cccc(N(CC(=O)N2CCc3ccccc3C2)S(C)(=O)=O)c1	-13.5%	-1.1%
37	O=C1c2cc3ccccc3c(-c3ccccc3)c2C(=O)N1c1ccccn1	6.0%	4.2%
38	C=CCN1C(=O)c2ccccc2NC1c1cc(Br)cs1 (centres undefined)	29.6%	-16.0%
39	Cc1cc(C(=O)Nc2cccc3c2O[C@@H](CN(C)S(=O)(=O)c2ccccc2)[C@H](C)CN([C@@H](C)CO)C3=O)n(C)n1	x	1.8%
40	CC1CCN(CCCNC(=O)C2CC(=O)N(C3CCCCCC3)C2)CC1 (centres undefined)	-0.5%	1.0%
41	CCOc1ccc(N2C(=O)CC(n3ccc(C)n3)C2=O)cc1 (centres undefined)	2.4%	2.6%
42	Cc1cccc(C)c1NC(=O)CN	4.0%	x
43	O=C1CN(CC(=O)NC2CCCc3ccccc32)CCN1 (centres undefined)	-0.1%	x
44	CC(C)N1CCN(Cc2ccsc2)CC1CCO (centres undefined)	-7.5%	-8.4%
45	CC12CCC(=O)N1C(C(=O)NNC(=O)c1ccccc1F)CS2 (centres undefined)	x	1.6%
46	C=CC[N+](C)(C)C/C(Cl)=C(\Cl)c1ccccc1	0.9%	4.0%
47	COc1cc(OC)cc(C(=O)NNC(=O)CCC(=O)c2cccs2)c1	4.7%	1.6%
48	O=C(COC(=O)/C=C/c1cccc(C(F)(F)F)c1)NCc1ccc(F)cc1	-16.3%	4.7%

# Other compounds
no. | N370S GC | TDP1 inh | structure
49 | -8.7% | x | Cc1ccc(C)c(Nc2nc(-c3cccnc3)cs2)c1
50 | -15.8% | 5.4% | O=S1(=O)NC(=NCCc2ccccn2)c2ccccc21
51 | 15.2% | 3.6% | NC(=O)c1ccccc1OCC(=O)c1ccc(Cl)cc1
52 | x | 1.9% | COc1ccc(NC(=O)c2cc3c(=O)n(C)c4cc(Cl)ccc4c3s2)cc1Cl
53 | -0.5% | -5.0% | CC(=O)N1CCOc2ccc(S(=O)(=O)N3CCCCC3)cc21
54 | -2.7% | 2.6% | CCN1CCCC1CNC(=O)C(=O)Nc1ccccc1 (centres undefined)
55 | x | 1.3% | CCOc1ccc(NC(=O)COc2ccc(C(=O)NCc3cccc(OC)c3)cc2OC)cc1
56 | 18.4% | 0.0% | CS(=O)(=O)NCc1nnc(SCc2ccccc2C(F)(F)F)o1
57 | 4.5% | 0.0% | O=C(NCc1ccccc1)c1ccc(F)c(S(=O)(=O)N2CCOCC2)c1
58 | -1.9% | 2.8% | O=C1N/C(=C/c2cccn2-c2ccccc2)C(=O)N1c1cccc(Cl)c1
59 | 5.3% | 5.6% | COC(=O)CN(c1ccc(C)c(Cl)c1)S(C)(=O)=O
60 | u | 2.5% | Cc1cc(S(=O)(=O)Nc2ccc(C(=O)NCC(c3ccccc3)N(C)C)cc2)ccc1F (centres undefined)
61 | x | -0.9% | CCOc1ccccc1NC(=O)C1CCN(S(=O)(=O)c2c(C)noc2C)CC1
62 | -5.1% | 1.9% | COCCNC(=S)Nc1ccc2nc(N3CCCC3)cc(C)c2c1
63 | 0.9% | x | CCN=C1S/C(=C\c2cc(Br)c(O)c(OC)c2)C(=O)N1CC
64 | -1.4% | x | CCCN1CCC(=O)N([C@H](CN=[N+]=[N-])Cc2ccccc2)CC1
65 | -4.9% | x | CC(=O)Nc1sc(C)c(C)c1C(=O)OCC(=O)N(C)c1c(N)n(Cc2ccccc2)c(=O)[nH]c1=O
66 | 9.7% | 9.0% | CCOc1cccc(=O)c2c(C)n(CC(=O)c3ccccc3)c(C)c12
67 | 26.9% | 0.0% | COc1cc(C(NC=O)C(=O)Nc2c(C)cccc2C)ccc1O (centres undefined)
68 | 7.0% | 1.0% | COc1ccc(NC(=O)CCCCn2c(=O)[nH]c3ccccc3c2=O)cc1
69 | -1.2% | x | Cc1nccn1Cc1ccccc1
70 | -2.8% | 1.9% | COC(=O)CSc1nnc(CNc2ccc(Cl)cc2)n1Cc1ccccc1
71 | -14.5% | 6.9% | COc1cccc(NC(=S)N2CCN(S(=O)(=O)c3ccc(F)cc3)CC2)c1
72 | 0.5% | x | COc1ccc(OCC(O)CN2CCN(CC(O)COc3ccc(OC)cc3)CC2)cc1 (centres undefined)
73 | -5.9% | 2.3% | CS(=O)(=O)N(Cc1ccccc1)c1ccc(C(=O)NCc2cccnc2)cc1
74 | 1.6% | 0.5% | CC(=O)Nc1ccc(SCC(=O)c2cc(C)n(CC(F)(F)F)c2C)cc1
75 | -9.8% | 0.5% | C=CCSc1nnc(NC(=O)Cn2cnc3c2c(=O)n(C)c(=O)n3C)s1
76 | -10.3% | x | COc1ccc(NC(=O)CN(C)C(=O)c2ccc(NS(=O)(=O)c3ccc(C)c([N+](=O)[O-])c3)cc2)cc1
77 | 9.3% | 6.6% | Cc1ccc(S(=O)(=O)C(C#N)c2nc3ccccc3nc2OC(C)C)cc1 (centres undefined)
78 | 2.9%[136 µM] | -15.1%[56.1 µM] | CCC1C(=O)C[C@H]2CCN3C(=O)CCCC1C23 (some centres undefined)
79 | 18.8% | 14.3% | CN(C)Cc1c(C(=O)N/N=C/c2ccccc2OCc2c(F)cccc2Cl)nnn1-c1nonc1N
80 | 0.6% | 0.0% | CSc1nc(N)n2nc(C(C)(C)C)cc2n1
81 | 4.9% | -5.0% | CSCCC(NC(=O)c1ccco1)C(=O)Nc1cc(C)ccn1 (centres undefined)
82 | x | 1.9% | CCN(CC)c1nn2c(=O)c(C(=O)NCCc3ccccc3)cnc2s1
83 | 3.9% | 4.8% | COC(=O)Cn1c(CN(Cc2ccccc2)Cc2ccccc2)nc2c1c(=O)[nH]c(=O)n2C
84 | -24.8% | 10.9%[56.1 µM] | NC(Cc1cnc[nH]1)C(=O)Nc1ccc2ccccc2c1 (centres undefined)
85 | 5.1% | 0.0% | CCc1cc(=O)oc2cc3oc(C)c(C)c3cc12
86 | 10.2% | 5.0% | O=C(Nc1cccc(NC(=O)c2ccccc2Cl)c1)c1cccs1
87 | x | 0.3% | CN(C)S(=O)(=O)n1cnc([C@@H]2[C@@H]3C(=O)OC[C@@H]3C[C@]23N=CN(Cc2ccccc2)C3=O)c1
88 | 3.3% | 6.7% | CSc1ccc(CNc2ccc(C)cc2)cc1
89 | 10.7% | -1.4% | COc1ccc(Nc2nc3ccc(C)cc3cc2C#N)c(OC)c1
90 | 10.5% | -1.1% | CC(C)C1N(c2ccccc2)C(N)=C(C#N)C1(C#N)C#N (centres undefined)
91 | 27.1% | 5.4% | CCN(CC(=O)NC(c1ccccc1)c1ccccc1)Cc1nc2ccccc2c(=O)[nH]1
92 | -0.7% | 2.6% | Cc1occc1C(=O)N1CCN(c2ccc(Cl)c(Cl)c2)CC1
